Compound activity (PubChem BioAssay)
N370S GC: qHTS Assay for Inhibitors and Activators of N370S glucocerebrosidase as a Potential Chaperone Treatment of Gaucher Disease. hit rate 0.092% among 330,000. Potency, µM (titrated, usually from 59.4 µM), without a hit: top-dose activity change, negative = inhibition, hits mostly inhibitors. N370S GC spleen homogenate, 4MU-glucoside fluorescence;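 further: 0% = full enzyme activity and -100% = no enzyme basal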
TDP1 block: qHTS Assay for Inhibitors of Tyrosyl-DNA Phosphodiesterase (TDP1); hit rate 0.28% among 350,000; Potency, µM (series often up to 130 µM), for inactives: at the top dose activity change, negative = inhibition, hits mostly inhibitors; recombinant TDP1, AlphaScreen DNA substrate cleavage; Tyrosyl-DNA phosphodiesterase 1 (Homo sapiens), Q9NUW8; further: nearly all actives have a fitted effect of over 40% in size
Target sequence (Q9NUW8 whole entry, looked up): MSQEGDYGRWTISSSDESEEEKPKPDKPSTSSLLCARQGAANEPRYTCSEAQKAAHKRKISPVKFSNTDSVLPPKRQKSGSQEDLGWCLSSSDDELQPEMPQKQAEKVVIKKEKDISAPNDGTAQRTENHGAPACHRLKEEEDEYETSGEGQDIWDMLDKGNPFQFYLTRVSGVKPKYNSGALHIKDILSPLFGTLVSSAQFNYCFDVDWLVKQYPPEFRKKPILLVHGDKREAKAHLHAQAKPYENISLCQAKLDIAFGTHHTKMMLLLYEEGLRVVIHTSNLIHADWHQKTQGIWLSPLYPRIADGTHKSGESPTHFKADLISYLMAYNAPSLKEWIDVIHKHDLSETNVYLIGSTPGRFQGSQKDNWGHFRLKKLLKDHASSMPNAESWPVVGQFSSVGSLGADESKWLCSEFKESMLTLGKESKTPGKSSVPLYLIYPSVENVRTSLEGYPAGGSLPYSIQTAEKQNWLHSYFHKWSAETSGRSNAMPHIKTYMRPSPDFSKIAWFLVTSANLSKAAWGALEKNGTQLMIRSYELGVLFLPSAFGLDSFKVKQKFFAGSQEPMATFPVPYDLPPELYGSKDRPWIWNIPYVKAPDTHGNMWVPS
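AlphaScreen read-out: signal falls as enzyme removes the 3' tyrosine-FITC from a 5'-biotinylated DNA oligo (15 nM, 5 min, RT). Enzyme was E. coli-made recombinant Tdp1 at 1 nM, exposed to compound for 15 min beforehand; beads 10 ug/ml, 10 min.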
* marks the source's active call; other numbers are inactive results; ? = inconclusive; nt = not tested or not shown; [ ] = another dose, or the depositor's remark. The call rests on the fitted dose curve; in most records, active means well fitted curve in the direction sought with a large enough effect; inconclusive means small, poorly fitted or top-dose-only effect, or another doubt; inactive means no such curve, though single readings can be large; an effect the other way counts as inactive or inconclusive. Unless noted, on the % scale 0 is the no-effect control and ±100 the full control effect; potency means the concentration at half of the fitted maximal effect. The list is partial; most or all hits stand in other tables.

SMILES	N370S GC	TDP1 block
O=C(COC(=O)C1CCN(S(=O)(=O)c2ccc3c(c2)OCCO3)CC1)Nc1cc(C(F)(F)F)ccc1Cl	-17.5%	-1.4%
O=C(Nc1c(Cl)ccc2nsnc12)c1cccnc1	-6.6%	2.7%
COC(=O)Cc1c(C)c2ccc(OCC(=O)N3CCCC3)c(C)c2oc1=O	-8.1%	5.5%
O=C(NCc1cccc(CNC(=O)Nc2cccc(O)c2)c1)Nc1cccc(O)c1	-13.6%	nt
c1ccc(-n2cnc3cc(NCc4ccccn4)ccc32)cc1	-3.1%	10.9%
CCC(Sc1nc2ncccc2[nH]1)C(=O)NC1CCCC1 (centres undefined)	1.2%	nt
Cn1c(/C(C#N)=C/c2cccc(O)c2)nc2ccccc21	6.1%	-7.6%
COc1ccc(NC(=O)C2=CC(c3ccc(C)cc3)=NS(=O)(=O)N2C)cc1OC	-0.8%	nt
CSc1ncccc1C(=O)OCC(=O)NC(C)CCc1ccccc1 (centres undefined)	nt	-3.4%
C=CCOC(=O)C(C#N)c1nc2ccccc2nc1N1CCC(C(=O)OCC)CC1 (centres undefined)	8.0%	7.8%
Cc1nc2nc(CSc3ccc(Cl)cc3)cc(=O)n2[nH]1	3.4%	2.1%
COc1ccccc1C(=O)C1CCCN(C(=O)Nc2ccccc2F)C1 (centres undefined)	5.9%	4.8%
Cc1ccc(NC(=O)c2cccc(N3CCCS3(=O)=O)c2)cc1C	nt	2.6%
Cc1onc(-c2ccccc2)c1C(=O)N/N=C/c1cc2c(cc1Cl)OCO2	22.7%	-1.9%
COc1ccc(/C=C2\SC(=S)N(CCCC(=O)N3CCCCC3CCO)C2=O)cc1 (centres undefined)	-6.8%	8.6%
CC(=O)N1N=C(c2ccncc2)OC1(Cc1ccccc1)Cc1ccccc1	12.0%	1.2%
COc1cccc(/C=C2\SC(=S)N(CCC(=O)NCCc3ccc(O)cc3)C2=O)c1	-14.9%	3.0%
CCNC(=S)N/N=C/c1ccc(OCC(=O)Nc2ccc(C)cc2)cc1	1.3%	5.7%
CCCCOc1ccc(NC(=O)Cn2c(=O)ccc3c(C)cc(C)nc32)cc1	22.1%	0.0%
Fc1ccc2c(c1)[C@H]1OCC[C@H]1[C@@H](c1ccco1)N2	6.0%	3.7%

Look-ups from the results shown:
Cc1onc(-c2ccccc2)c1C(=O)N/N=C/c1cc2c(cc1Cl)OCO2 | N370S GC = 22.7%
O=C(NCc1cccc(CNC(=O)Nc2cccc(O)c2)c1)Nc1cccc(O)c1 | N370S GC = -13.6%
O=C(Nc1c(Cl)ccc2nsnc12)c1cccnc1 | TDP1 block = 2.7%
Cc1ccc(NC(=O)c2cccc(N3CCCS3(=O)=O)c2)cc1C | TDP1 block = 2.6%
Cn1c(/C(C#N)=C/c2cccc(O)c2)nc2ccccc21 | N370S GC = 6.1%
CC(=O)N1N=C(c2ccncc2)OC1(Cc1ccccc1)Cc1ccccc1 | TDP1 block = 1.2%

Continued:
SMILES	N370S GC	TDP1 block
Cc1cc(N2CCN(C(=O)Nc3ccc(F)cc3F)CC2)c2ccccc2n1	-10.0%	nt
O=c1oc(CCO)cc2ccccc12	nt	0.2%
CC1CC(=O)N(CC(=O)Nc2ccc(F)cc2F)c2ccccc2S1(=O)=O (centres undefined)	22.8%	3.3%
O=C(NC(=S)NCC1CCCO1)c1ccc([N+](=O)[O-])cc1 (centres undefined)	1.5%	8.9%
COc1ccc(N2C(=O)C(C)(C)C2c2c(O)ccc3ccccc23)cc1 (centres undefined)	-5.1%	nt
CCOc1ccc(/C=C\c2nc(O)c([N+](=O)[O-])c(=O)[nH]2)cc1OCC	-18.4%	nt
C=CCS(=O)(=O)N1CCCC(N2CCN(c3ccccc3OC)CC2)C1 (centres undefined)	-2.5%	nt
CCN(CC)S(=O)(=O)c1ccc(N2CCCC2)c(NS(=O)(=O)c2ccc(OC)cc2)c1	10.8%	5.6%
CCOC(=O)c1ccc(N2C(=O)C3C(C2=O)C(C(=O)c2ccc(Cl)cc2)N2CCCC32)cc1 (centres undefined)	-7.2%	11.9%
O=C(CNC(=O)c1ccco1)N/N=C/c1ccc(O)cc1O	6.9%	-0.9%
COc1ccc(C)cc1NC(=O)CSc1nnnn1C1CCCC1	-9.0%	nt
CC(C)(C)NC(=O)CN1CCC(NC(=O)C23CC4CC(CC(C4)C2)C3)CC1	6.0%	6.2%
O=C(CSc1nnc(Nc2ccccc2)s1)Nc1ccc(S(=O)(=O)N2CCOCC2)cc1	nt	4.7%
COc1cc(/C=N/N=C(\N)c2nonc2N)cc(OC)c1O	-11.8%	nt
CCN(CC(=O)NC1CC1)S(=O)(=O)c1ccc(OC)cc1	-8.4%	0.8%
COc1ccccc1CN1CCNC(=O)C1CC(=O)N(C)Cc1ccon1 (centres undefined)	-2.0%	2.4%
CC(Oc1ccc(F)cc1)C(=O)N(CCC1=CCCCC1)c1c(N)n(Cc2ccccc2)c(=O)[nH]c1=O (centres undefined)	7.5%	0.5%
Cc1nc(-n2[nH]c3c(c2=O)CCCC3)[nH]c(=O)c1Cc1ccccc1	9.1%	-2.9%
O=C(Cc1ccc(Cl)cc1)NNC1CC(=O)N(c2ccc3ccccc3c2)C1=O (centres undefined)	-10.0%	6.2%
CS(=O)(=O)c1ccc([C@H](O)[C@H](CO)NC(=O)C(Cl)Cl)cc1	-5.7%[21.6 µM]	13.3%[21 µM]
CC(C)(C)OC(=O)C[C@@H]1C/C=C\C[C@@H](CC(=O)N[C@H](CO)Cc2ccccc2)C(=O)NC[C@@H](c2ccccc2)OC1=O	nt	-0.7%
Cc1nc2ncnn2c(Nc2ccc3c(c2)OCO3)c1Cc1ccccc1	-6.7%	6.0%
COc1ccc(CNC(=O)C2CCCN2CCc2ccccc2)cc1OC (centres undefined)	-19.5%	-2.3%
Cc1cc(C)cc(NC(=O)COC(=O)c2ccc3c(c2)OCCO3)c1	nt	-0.7%
CC(C)C(OC(=O)c1ccc(Cl)nc1)C(=O)NC1CCCCC1 (centres undefined)	-4.5%	5.2%
CS(=O)(=O)N1CC2CCCN2c2cc(C(F)(F)F)ccc21 (centres undefined)	6.4%	1.8%
Cc1ccc(C(=O)NC(N2CCCC2)C(Cl)(Cl)Cl)cc1 (centres undefined)	3.0%[12.8 µM]	-3.0%
Cc1c(NC(=O)Nc2cc(Cl)ccc2Cl)c(=O)n(-c2ccccc2)n1C	-1.2%	2.5%
Cc1ccc(N(CC(=O)N2CCCCCC2)S(C)(=O)=O)cc1Cl	-3.8%	nt
CN(C)CCn1c2c(c(SCC(=O)Nc3ccc(F)cc3F)nc1=O)CCC2	nt	2.6%
CCc1[nH]nc2c1C1(CCOC1C)C(C#N)=C(N)O2 (centres undefined)	-2.3%	3.1%
Nc1cc(=O)[nH]c(SCc2nnc(-c3ccccc3)o2)n1	-3.0%	6.3%
O=C(N/N=C/c1cccc(Oc2ccccc2)c1)c1cccc(O)c1	-9.8%	4.6%[56.1 µM]
CC(CN1CCOCC1)OC(=O)COc1ccc(F)cc1 (centres undefined)	-0.8%	2.9%
CCc1ccc(NC(=O)CNS(=O)(=O)c2c(C)noc2C)cc1	7.8%	-3.9%
CC1(C)CC2(CCO1)CNC(=O)O2 (centres undefined)	0.0%	-3.1%
C/C(=N\NC(=O)c1cccc([N+](=O)[O-])c1)c1cccnc1	-2.5%	nt
COc1ccccc1NC(=O)c1ccc(NC(=O)C2CC2C)cc1 (centres undefined)	nt	0.2%
COc1ccccc1N1CCN(C(=O)CCCCn2c(=O)[nH]c3ccsc3c2=O)CC1	-4.6%	2.5%
C=CCN1C(=O)/C(=C\c2cccc(OC(=O)c3ccco3)c2)SC1=S	-3.6%	11.6%

Some of these compounds in order of SMILES length, lowest first:
SMILES	N370S GC	TDP1 block
CC(CN1CCOCC1)OC(=O)COc1ccc(F)cc1 (centres undefined)	-0.8%	2.9%
COc1ccccc1NC(=O)c1ccc(NC(=O)C2CC2C)cc1 (centres undefined)	nt	0.2%
CCc1ccc(NC(=O)CNS(=O)(=O)c2c(C)noc2C)cc1	7.8%	-3.9%
Cc1c(NC(=O)Nc2cc(Cl)ccc2Cl)c(=O)n(-c2ccccc2)n1C	-1.2%	2.5%
CC(C)(C)OC(=O)C[C@@H]1C/C=C\C[C@@H](CC(=O)N[C@H](CO)Cc2ccccc2)C(=O)NC[C@@H](c2ccccc2)OC1=O	nt	-0.7%

Remaining list, next part:
SMILES	N370S GC	TDP1 block
CCOc1ccc(C(=O)CCC(=O)NC(CC(C)C)C(=O)OC)cc1 (centres undefined)	6.2%	-2.6%
COc1ccc2c(=O)c(N3C(=O)c4ccccc4C3=O)coc2c1	8.8%	0.0%
COC(=O)CC1C(=O)NCCN1C(=O)c1ccc2oc(C(C)C)nc2c1 (centres undefined)	2.5%	3.1%
CCOC(=O)C1=C(O)/C(=C/c2cccc(OC)c2O)N=C1C	14.3%	-5.4%
COc1ccc(NS(=O)(=O)c2c(C)n(C)c(=O)n(C)c2=O)cc1OC	5.2%	1.2%
COc1ccccc1/C=C/CN1CCSCC1	-0.5%	nt
CCC(=O)Nc1ccccc1C(=O)OCC(=O)c1cccc2ccccc12	5.9%	0.0%
Cc1cc2occ(CC(=O)N(C)CC(=O)Nc3ccccc3Br)c2cc1C	5.6%	nt
O=C(c1ccc(-n2cncn2)c([N+](=O)[O-])c1)N1CCN(S(=O)(=O)c2ccc(Br)cc2)CC1	-0.1%	nt
Cc1ccccc1NCCC(=O)Nc1ccc(Cl)cc1	3.1%	7.8%
Nc1nonc1-n1nnc(C(=O)N/N=C/c2ccc(OCc3ccc(F)cc3)cc2)c1COc1ccccc1	-8.8%	nt
O=C(CCNS(=O)(=O)c1cccc2nsnc12)NC1CCCc2ccccc21 (centres undefined)	-1.5%	7.6%
O=C(Cc1ccccc1F)NCC1(N2CCOCC2)CCCCC1	-16.2%	2.9%
CC12CCC(C(=O)N/N=C/c3ccc(O)cc3)(OC1=O)C2(C)C (centres undefined)	-3.0%	1.2%
CN(CC(=O)Nc1ccc2c(c1)OCO2)S(=O)(=O)c1cccs1	-0.5%	3.1%
CCc1nc(SCC(=O)NC2CC2)c2c(C)c(C)sc2n1	1.8%	0.5%
CCOC(=O)c1ccc(NC2c3ncccc3C(=O)N2Cc2ccc(F)cc2)cc1 (centres undefined)	?	2.9%
CS/C(=C(/C#N)S(=O)(=O)c1ccc(Cl)cc1)N1CCOCC1	-18.5%	nt
COc1cc(NS(=O)(=O)c2ccc(NC(=O)NC3CCCCC3)cc2)nc(OC)n1	-7.4%	6.9%
CC(C)CC(C(=O)O)N1C(=O)C2C3CC(C2C1=O)C1C(c2ccccc2)c2sc(=O)[nH]c2SC31 (centres undefined)	12.8%	3.0%

In the list so far, these have bromine:
SMILES	N370S GC	TDP1 block
Cc1cc2occ(CC(=O)N(C)CC(=O)Nc3ccccc3Br)c2cc1C	5.6%	nt
O=C(c1ccc(-n2cncn2)c([N+](=O)[O-])c1)N1CCN(S(=O)(=O)c2ccc(Br)cc2)CC1	-0.1%	nt

The list continues.
SMILES	N370S GC	TDP1 block
Cc1ccccc1Cn1cc(C)c(=O)[nH]c1=O	3.3%	2.7%
Cc1ccc(S(=O)(=O)N2CCOCC2)cc1NC(=O)COC(=O)c1cnccn1	nt	1.1%
O=S(=O)(NC1c2cccc3cccc(c23)C1N1CCN(CCO)CC1)c1ccccc1 (centres undefined)	-4.6%	2.9%
COc1ccc(NC(=O)CSc2n[nH]c(N)n2)cc1OC	-3.8%	2.6%
COc1ccc(CC(=O)NCC2CCCN(Cc3ccccc3OC)C2)cc1 (centres undefined)	-8.7%	nt
O=C(NC1CCC(=O)N(CCSc2ccccc2)CC1)OCc1ccccc1 (centres undefined)	-0.8%	nt
CCOC(=O)C(C)Oc1cccc2c(=O)n(CC(=O)NCc3ccco3)ccc12 (centres undefined)	?	0.0%
Cc1cc([N+](=O)[O-])ccc1N(C)C	-0.5%	2.6%
O=C(COC(=O)c1ccccc1F)Nc1ccc2c(c1)OCCO2	-12.3%	0.7%
O=C(OCC(=O)N1CCN(C(=O)c2ccco2)CC1)c1ccc(Cl)cc1	nt	0.8%
COc1ccc(OC)c(C2NC(=S)NC3=C2N2CCC3CC2)c1 (centres undefined)	3.0%	2.7%
CCOc1ccc(/C(O)=C2\C(=O)C(=O)N(c3cc(C)on3)C2c2ccccc2OC)cc1 (centres undefined)	0.6%	-7.4%
CNS(=O)(=O)c1ccc(NC(=O)C(CCSC)NC(N)=O)cc1 (centres undefined)	-0.1%	0.0%
COCCSc1nnc(NC(=O)C2CC(=O)N(c3ccc(Cl)cc3)C2)s1 (centres undefined)	-3.7%	2.6%
CN(c1ncnc(N)c1[N+](=O)[O-])C1CCCCC1	0.1%	2.2%
COc1ccc(-n2c3nc4ccccc4nc3c3c(=N)oc(C)nc32)cc1	-2.0%	2.7%
Cc1ccc(/C=N/n2c(-c3ccncc3)n[nH]c2=S)s1	-1.6%	1.4%
COc1ccc(/C=C(\NC(=O)c2cccs2)C(=O)N2CCOCC2)cc1OC	9.5%	0.0%
Brc1cc2c(cc1CN1CCc3ccccc3C1)OCO2	-12.9%	nt
CC(C)(C)SCCNC(=O)COc1ccccc1	-1.7%	1.1%
CC12CCC(=O)N1C(C(=O)Nc1ccc(Cl)c(S(=O)(=O)N3CCCCC3)c1)CS2 (centres undefined)	-3.3%	2.8%[0.505 µM]
CC1CCCCN1C(=O)COc1ccccc1F (centres undefined)	22.5%	0.0%
C=CCNC(=O)C1CCN(S(C)(=O)=O)CC1	3.1%	1.9%
